Source: PubChem (several laboratories)
RecA splice inh – inhibitors of M. tuberculosis RecA intein splicing; cell-free RecA intein splicing, fluorescence; P9WHJ3; actives 0.75% (n = 290,000); AID 2221; inhibition, %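 (about 9 µM by stock and volumes)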; in the data active = inhibition above about 30%; inconclusive = no clear call, values can overlap the other calls;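 also: 0% = vehicle wells and 100% = reference inhibitor control wells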
Target sequence (P9WHJ3 whole entry, looked up, canonical isoform): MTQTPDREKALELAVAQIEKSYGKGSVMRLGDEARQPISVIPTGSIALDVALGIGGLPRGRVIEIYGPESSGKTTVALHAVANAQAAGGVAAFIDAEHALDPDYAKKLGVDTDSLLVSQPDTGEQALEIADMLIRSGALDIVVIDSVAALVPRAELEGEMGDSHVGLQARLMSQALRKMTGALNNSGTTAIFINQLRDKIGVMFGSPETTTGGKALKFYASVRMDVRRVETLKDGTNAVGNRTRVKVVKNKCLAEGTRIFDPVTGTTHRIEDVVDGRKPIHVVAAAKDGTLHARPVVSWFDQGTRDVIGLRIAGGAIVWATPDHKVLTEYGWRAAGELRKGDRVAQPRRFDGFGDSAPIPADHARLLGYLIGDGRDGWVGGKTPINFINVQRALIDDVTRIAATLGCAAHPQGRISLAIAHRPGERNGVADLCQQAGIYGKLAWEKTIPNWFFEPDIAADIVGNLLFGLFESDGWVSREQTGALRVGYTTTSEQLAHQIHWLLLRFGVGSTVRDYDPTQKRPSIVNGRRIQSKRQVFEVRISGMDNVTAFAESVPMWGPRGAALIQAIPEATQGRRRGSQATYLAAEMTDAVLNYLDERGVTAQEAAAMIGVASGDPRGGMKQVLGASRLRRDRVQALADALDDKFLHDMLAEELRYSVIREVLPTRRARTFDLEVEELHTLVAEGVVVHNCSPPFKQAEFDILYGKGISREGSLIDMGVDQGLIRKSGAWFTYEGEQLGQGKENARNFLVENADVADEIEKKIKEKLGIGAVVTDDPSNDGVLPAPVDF
Mtb growth – M. tuberculosis H37Rv growth inhibitors, H37Rv strain (AID 1626); M. tuberculosis H37Rv growth inhibition; higher % means a stronger effect; one-dose inhibition, % at 10 µM; IC50 in µM for titrated hits; actives 0.95% (n = 220,000);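 active = confirmed in a dose series; inconclusive = inhibition above 80% but not taken into the dose series; inactive = below 80% or under 30% at every dose of the series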;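 also: bacteria incubated seven days before Alamar blue readout; 0% = bacteria only wells and 100% = bacteria with antibiotic wells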
Arbovirus anti – arbovirus infection inhibition. arbovirus infection cell-based antiviral screen. inhibition, % at 10 µM. actives 0.37% (n = 200,000). AID 1251;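 active = inhibition from about 30%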;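 also: bluetongue infection of BSR cells; cell survival read as ATP light after 72 h; 0% = infected wells without compound and 100% = uninfected wells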
Mtb betalactam – beta-lactam sensitization of Mtb H37Rv; inhibition, % at 25 µM; AID 434955; M. tuberculosis H37Rv growth with meropenem, percent inhibition; hits of this screen are not shown here; actives 0.27% (n = 330,000);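 active = about 74% or more and at least 40 points above the plate without the antibiotic, then above 30% in a dose series; inconclusive = first-round hits that could not be retested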;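 also: growth measured after seven days incubation then overnight dye step; 0% = bacteria only wells and 100% = bacteria with antibiotic; twin plates without the antibiotic show which effects depend on it; some results filed as inactive read as strong as hits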
YopH PTP inh – inhibitors of Yersinia enterocolitica YopH tyrosine phosphatase. fluorescence Ex485/Em525. inhibition, %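 (about 10 µM by stock and volumes)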. actives 0.16% (n = 140,000);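 active = inhibition of 50% or more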;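 also: controls were vehicle for no effect and minimum signal wells for full effect; inactives centre near -20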
Arbovirus anti repeat – also measured in Arbovirus anti; calls as there; inhibition, %; measured here: 10K subset replicate screen; many hits read low in the repeat;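 first of two repeat runs on a subset; 0% = infected and 100% = uninfected wells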
Active calls of the source: *; ? = inconclusive; . = not tested or not shown.

SMILES | RecA splice inh | Mtb growth | Arbovirus anti | Mtb betalactam | YopH PTP inh | others
CC(OC(=O)c1ccc(OCC2CCCO2)cc1)C(=O)N(C)Cc1ccccc1 (stereo not given) | 0.7 | . | . | -3 | .
COC(=O)Nc1nc2ccc(C(=O)c3cccs3)cc2[nH]1 | -6.8 | -10% | . | 4 | .
O=C(Cn1cnc2c(nnn2Cc2ccccc2)c1=O)Nc1ccc2c(c1)OCCO2 | -0.6 | . | . | -17 | .
CCn1cc(C(=O)NCCc2ccccc2)c(=O)c2cc(F)c(N3CCN(C)CC3)cc21 | 1.2 | 2% | -17 | -6 | -14
Cc1ccc([N+](=O)[O-])cc1NC1CC(O)C(CO)O1 (stereo not given) | -0.9 | 1% | -2 | -6 | -37
Cc1ccc(NC(=O)C(C)OC(=O)c2n[nH]c3ccccc23)cc1 (stereo not given) | -4.2 | . | . | -4 | .
Cc1cc2[nH]c(=O)c(=O)[nH]c2cc1S(=O)(=O)N(C)C1CCCCC1 | 2.4 | . | . | ? | .
CCn1c(SCc2ccccc2)nnc1C1CCCCC1 | 0.7 | 0% | 4 | -2 | 2
CNc1nc(SC)n(C)c(=O)c1N=O | 11 | -13% | . | 18 | .
O=C1NCCN1C(=O)N(c1ccccc1)c1ccccc1 | -0.8 | -23% | 12 | -3 | 1
O=C(Nc1ccccc1N1CCCCC1)c1cccc(Cl)c1 | 12 | . | . | 9 | .
COc1ccccc1NC(=O)CSc1nnc(-c2ccco2)o1 | 3.0 | -4% | 10 | 0 | -30
Cn1c(=O)c2cc(S(=O)(=O)NC(C(=O)Nc3cccc(F)c3)c3ccccc3)ccc2n(C)c1=O (stereo not given) | 1.2 | . | 2 | -7 | -39
COc1cccc(-c2cccc(NC(=O)C3CCN(Cc4nccs4)CC3)c2)c1 | 0.1 | . | . | 3 | .
CCCOc1ccc(NC(=O)C2CC(=O)N(C(C)C)C2)cc1 (stereo not given) | 0.5 | -5% | 7 | -4 | -26
O=C(O)C(Cc1cn[nH]n1)=NO | -0.6 | 0% | . | -2 | .
CCOc1ccc(N(CC(=O)NCc2ccccc2)S(C)(=O)=O)cc1 | -2.1 | -9% | 5 | -4 | -19 | Arbovirus anti repeat=1
O=C(CSc1nnc(-c2cccnc2)o1)Nc1ccccc1F | -0.8 | . | . | -8 | .
O=C(COC(=O)C1CCN(S(=O)(=O)c2ccc3c(c2)OCCO3)CC1)Nc1ccc(C(F)(F)F)cc1 | -0.4 | -3% | -6 | 2 | -12
CN(C)c1cc(-c2cccc([N+](=O)[O-])c2)oc(=O)c1Cl | 0.2 | 2% | . | -8 | .
Cc1onc(-c2c(Cl)cccc2Cl)c1C(=O)N=C(N)N1CC(C)OC(C)C1 (stereo not given) | 0.2 | 0% | . | -10 | .
C=CCn1cccc(C(=O)Nc2ccc(OC)c(Cl)c2)c1=O | 1.6 | . | . | -5 | .
CC(=O)C1=C(O)C(=O)N(c2ccc(C(=O)O)cc2)C1c1ccc([N+](=O)[O-])cc1 (stereo not given) | 1.2 | . | . | -6 | .
O=C(/C=C/Sc1ncn[nH]1)c1ccc(Cl)cc1 | 12 | 6% | -31 | 81 | -5
COCC(C)OC(=O)c1c(N)n(-c2ccc(OC)c(OC)c2)c2nc3ccccc3nc12 (stereo not given) | 2.4 | -6% | . | 4 | .
O=C(Cn1nc(-c2ccccc2)c2ccccc2c1=O)Nc1ccc(O)cc1 | -2.3 | -2% | . | -2 | .
COc1ccc(S(=O)(=O)N2CCOCC2)cc1C(=O)N1CCCC1 | 9.3 | . | . | 0 | .
Cc1ccc(-c2nc3c4ccccc4ccn3c2CN2CCCCC2)cc1 | 3.3 | -8% | . | 40 | .
Cc1ccc(CN2C(=O)CCC2C(=O)NCc2ccccc2Cl)cc1 (stereo not given) | 0.5 | 5% | 5 | -9 | .
Cc1ccc(NC(=O)CN2CCC3(O)CCCCC3C2c2ccc3c(c2)OCO3)c(C)c1 (stereo not given) | 6.2 | 2% | 4 | 44 | -25
O=C(CCC(=O)c1ccc(F)cc1)Nc1cccc(Br)c1 | -5.5 | . | . | 7 | .
O=C(O)c1ccc(Oc2ccccc2)o1 | 2.1 | -13% | . | -2 | .
Cc1ccc(NC(=O)CN2CCN(CCN=CC3=C(O)CC(C)(C)CC3=O)CC2)cc1 | 1.9 | -2% | 5 | -2 | -21
CCC(=O)Nc1nc(C)c(C(=O)N2CCCCC2)s1 | -2.5 | 6% | -2 | 3 | -52
COc1ccc(N2CCN(S(=O)(=O)CCNC(=O)C3CC(=O)N(c4ccccc4)C3)CC2)cc1 (stereo not given) | -0.3 | . | . | -8 | .
Cc1cc(NC(=O)CC(C)(C)C)nc2c1c(=O)oc1ccccc12 | -3.4 | 0% | -1 | 2 | -26
Cc1nc(NCCc2ccccc2)sc1C(=O)N(C)C | 0.4 | . | . | -4 | .
Cc1ccc(NC(=O)CSc2ccc(-c3ccccn3)nn2)cc1F | -1.0 | . | . | 98 | .
CC1(C)OC(=O)N(c2cccnc2)C1(C)O (stereo not given) | -1.5 | -4% | 6 | -5 | 4
O=C(c1ccc(OC2CCN(Cc3cccc(F)c3)CC2)cc1)N1CCCCC1 | 0.5 | . | . | -12 | .
Cc1ccc(NC(=O)c2ccc3ccccc3n2)cc1S(=O)(=O)N(C)C | -1.3 | 7% | 2 | 11 | .
CN(C)CCCN1C(=O)C(=O)/C(=C(/O)c2ccncc2)C1c1ccccc1 (stereo not given) | -1.7 | 12% | . | -14 | .
O=C(COC(=O)CCSc1ccc(Cl)cc1)NCc1ccccc1Cl | 0.2 | 12% | -9 | 13 | -9
COc1ccc(NCc2nnc(SCC(=O)N3CCCc4ccccc43)o2)cc1 | 3.7 | 34% | -9 | 86 | -22
CC1CCCN(c2nc3c(c(=O)[nH]c(=O)n3C)n2Cc2ccccc2Cl)C1 (stereo not given) | 0.2 | 0% | 4 | 2 | -15 | Arbovirus anti repeat=9
C=CC1CN(C(=O)OCC(Cl)(Cl)Cl)C2CC3c4ccc(OC)cc4NC3C3CC1C2CO3 (stereo not given) | 15 | 76% | . | -4 | .
CCOc1ccc(CN2CCNC(=O)C2CC(=O)NC2CCOCC2)cc1 (stereo not given) | 1.1 | . | . | ? | .
Cc1ccsc1C(=O)OCC(=O)Nc1sccc1C(N)=O | 1.0 | -7% | 14 | 5 | -3
COc1cc(C(=O)N2CCN(Cc3ccccc3C(F)(F)F)CC2)cc(OC)c1OC | 1.5 | . | 1 | -3 | -24
CC(C)CCNC(=O)NC(=O)COc1ccccc1C#N | 1.1 | 5% | -1 | ? | -5

Quoted at random: three entries already listed, in no set order.
SMILES | RecA splice inh | Mtb growth | Arbovirus anti | Mtb betalactam | YopH PTP inh | others
COc1cc(C(=O)N2CCN(Cc3ccccc3C(F)(F)F)CC2)cc(OC)c1OC | 1.5 | . | 1 | -3 | -24
CC1CCCN(c2nc3c(c(=O)[nH]c(=O)n3C)n2Cc2ccccc2Cl)C1 (stereo not given) | 0.2 | 0% | 4 | 2 | -15 | Arbovirus anti repeat=9
CC(C)CCNC(=O)NC(=O)COc1ccccc1C#N | 1.1 | 5% | -1 | ? | -5

(continued)
SMILES | RecA splice inh | Mtb growth | Arbovirus anti | Mtb betalactam | YopH PTP inh | others
CCOc1cc(CO)ccc1OCC(=O)N1CCCCC1 | 0.8 | -2% | 5 | -6 | -32
CN(C)c1ccc(/C=C2\C(=N)N3N=C(CC(=O)N4CCCCC4)SC3=NC2=O)cc1 | 0.0 | . | . | 3 | .
O=C(N/C(=C/c1ccc(Br)cc1)C(=O)N1CCOCC1)c1cccs1 | 11 | -3% | -13 | -8 | .
CCOC(=O)/C=C/C(=O)Nc1ccc(S(=O)(=O)N(C)c2ccccc2)cc1 | -2.0 | -2% | -3 | 0 | .
CCC(=O)Nc1ccc2oc(-c3cccnc3)nc2c1 | 1.6 | 10% | . | -2 | .
O=C(Nc1cccc2ccccc12)c1ccccc1NS(=O)(=O)c1cccc2cccnc12 | 4.7 | -4% | 9 | -2 | -47
Cc1ccccc1NC(=O)c1c(C)[nH]c(=S)c(C#N)c1-c1ccc(Cl)cc1 | 0.6 | 5% | . | -6 | .
CCc1ccccc1NC(=O)CSc1nc2ccccc2n1CC(=O)N(C)C | -0.3 | 4% | 2 | . | -25
O=C(O)C1CCC(=O)N1Cc1ccccc1Cl (stereo not given) | . | -6% | 6 | -12 | -3
C=CCNCC(O)COc1ccc(C(C)=O)cc1OC (stereo not given) | -0.6 | . | . | 1 | .
Cc1c(-c2ccccc2)[n+](=O)c(-c2ccc(Br)cc2)c(C)n1[O-] | 0.4 | 0% | . | 5 | .
Cc1cc(C(=O)COC(=O)C2COc3ccccc3O2)c(C)n1CC1CCCO1 (stereo not given) | 1.8 | 1% | 0 | -8 | -14
COc1ccccc1/C=N/NC(=O)CC(=O)NCCc1ccccc1 | -1.1 | . | . | -4 | .
CS(=O)(=O)N1CCCC(C(=O)N2CCc3ccccc3C2)C1 (stereo not given) | 2.9 | -5% | 12 | -1 | -40
COc1ccc(Br)cc1CNC(=O)CCN1C(=O)COc2ccccc21 | -2.9 | 2% | 2 | 8 | -19
Cc1ccc(N(Cc2ccccc2)C(=O)c2ccc(F)c(S(=O)(=O)N3CCOCC3)c2)cc1 | 4.1 | . | . | -4 | .
C=CCNc1nc2ccccc2nc1NS(=O)(=O)c1ccc(Br)cc1 | 1.7 | . | . | -4 | .
COc1ccc(S(=O)(=O)NC2CC3CCC2C3)cc1 (stereo not given) | 0.5 | . | . | -3 | .
COc1cccc(NC(=O)N2C3CCCC2CC(NC(=O)C2CC2)C3)c1 (stereo not given) | 2.2 | . | . | -5 | .
COc1ccc(-c2csc(N3N=C(C)C(C)C3=O)n2)cc1 (stereo not given) | 2.2 | 70% | 18 | 99 | .
CSc1cccc(-n2c(C)cc(C(N)=O)c2C)c1 | 2.1 | -1% | 5 | 32 | -45
N#CC(c1ccc(F)cc1)c1ccc(C(=O)c2ccc(F)cc2)cc1 (stereo not given) | -2.5 | 14% | -3 | 76 | -8
O=C(NCc1ccco1)C1CC(c2ccccc2O)=NO1 (stereo not given) | -5.8 | -1% | -14 | 3 | .
CC(=O)Nc1ccc(NC(=O)C(C)OC(=O)c2ccccc2Sc2ccccc2C#N)cc1 (stereo not given) | -2.5 | -3% | -9 | 2 | -19
O=[N+]([O-])c1ccc(-c2c[nH]c(=S)[nH]2)cc1 | . | 7% | . | 3 | .
CNC(=S)NNC(=O)c1cccn(Cc2ccc(Cl)c(Cl)c2)c1=O | 0.7 | -8% | -16 | 14 | -47
CCOC(=O)c1ccccc1NC(=O)c1cn(-c2ccc(OC)cc2)c(=O)c2ccccc12 | -1.3 | 4% | -3 | 1 | -24
CC1(C)Cc2c(ccc3ccccc23)-c2nnc(-c3cccnc3)n21 | -3.7 | 12% | 0 | 5 | -41
O=C(NC(NC(=O)c1ccccc1)C(=O)c1ccccc1)c1ccccc1 | . | 6% | -19 | 3 | 33
CCN1CC(CN(C)Cc2nc(Cc3ccccc3)no2)CC1=O (stereo not given) | -2.6 | -8% | 3 | -3 | .
Cc1nn(-c2ccccc2)c2c1C1(C(=O)Nc3ccccc31)N1C(=N2)Sc2ccccc21 (stereo not given) | 2.9 | 33% | -15 | -19 | -5
CC(=O)c1ccc(N2Cc3ccccc3C3(CCOCC3)C2=N)cc1 | 3.2 | -1% | 9 | -6 | .
CCN(CC)C(=O)Cn1cc(S(=O)(=O)CC(=O)Nc2ccccc2F)c2ccccc21 | 8.1 | . | . | -6 | .
Cc1ccc(S(=O)(=O)N2CCN(c3ccccc3)CC2)cc1C | 4.8 | . | . | 1 | .
Cc1onc(-c2c(F)cccc2Cl)c1C(=O)NCc1ccco1 | 2.4 | -9% | -2 | -23 | -17
CNC(=O)/C(=C\C=C\c1ccccc1)NC(=O)c1ccc([N+](=O)[O-])cc1 | 0.7 | -4% | -1 | -2 | -16
COc1ccc(S(=O)(=O)Nc2ccc(S(=O)(=O)N3CCCCC3)cc2)cc1 | -2.6 | -3% | 10 | 4 | -34
CCC(CC)C(=O)Nc1ccncc1 | -1.6 | -5% | 3 | -11 | .

In the list so far, five have a nitro group on carbon:
SMILES | RecA splice inh | Mtb growth | Arbovirus anti | Mtb betalactam | YopH PTP inh | others
Cc1ccc([N+](=O)[O-])cc1NC1CC(O)C(CO)O1 (stereo not given) | -0.9 | 1% | -2 | -6 | -37
CN(C)c1cc(-c2cccc([N+](=O)[O-])c2)oc(=O)c1Cl | 0.2 | 2% | . | -8 | .
CC(=O)C1=C(O)C(=O)N(c2ccc(C(=O)O)cc2)C1c1ccc([N+](=O)[O-])cc1 (stereo not given) | 1.2 | . | . | -6 | .
O=[N+]([O-])c1ccc(-c2c[nH]c(=S)[nH]2)cc1 | . | 7% | . | 3 | .
CNC(=O)/C(=C\C=C\c1ccccc1)NC(=O)c1ccc([N+](=O)[O-])cc1 | 0.7 | -4% | -1 | -2 | -16

Some of the compounds tested (hit frequency here may not be typical).
